Cruzain inh noDet – blocks cruzain activity in detergent-free assay; purified cruzain, Z-FR-AMC fluorescence, no detergent; 200,000 compounds, 2.3% hits; Potency, µM, for the others: max response, negative = inhibition, most hits filed as inhibitors; AID 1476;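 further: plate controls were enzyme without inhibitor for no effect and buffer without enzyme for full effect; nearly all actives have a fitted effect of over 40% in size; top concentration of the series not given in the record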
Target sequence (P25779 123-467 limits assumed): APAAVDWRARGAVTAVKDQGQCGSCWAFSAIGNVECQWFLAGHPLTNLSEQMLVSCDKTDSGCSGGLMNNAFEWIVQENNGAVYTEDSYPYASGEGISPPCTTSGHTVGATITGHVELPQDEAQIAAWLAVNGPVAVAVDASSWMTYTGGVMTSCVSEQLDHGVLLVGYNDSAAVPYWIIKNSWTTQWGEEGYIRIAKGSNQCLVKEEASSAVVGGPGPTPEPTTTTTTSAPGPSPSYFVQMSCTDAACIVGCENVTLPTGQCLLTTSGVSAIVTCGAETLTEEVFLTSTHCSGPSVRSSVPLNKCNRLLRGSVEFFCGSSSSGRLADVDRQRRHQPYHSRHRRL
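Purified cruzain at 1.5 nM, pre-incubated 15 min with compound at room temperature in 100 mM sodium acetate pH 5.5, 5 mM DTT, 0.00005% Triton X-100. Reaction started with 2 uM Z-FR-AMC; AMC fluorescence increase over 60 s gives rate.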
LASV entry inh – Lassa virus entry inhibition; Lassa virus pseudotype entry inhibition, cell reporter; control for the full effect not named in the record; Potency, µM (highest dose often 37.9 µM), without a hit: top-dose activity change, negative = inhibition, hits mostly inhibitors; 300,000 compounds, 1.2% hits; active means well fitted inhibition curve with a large enough effect; inconclusive means small, poorly fitted or top-dose-only effect, or effect the other way; inactive means flat fitted curve, though single readings scatter; tested in HEK293 cells; further: on the % scale 0 is the no-effect control and ±100 the full control effect; nearly all actives have a fitted effect of over 50% in size; luciferase read-out
SARS PLP yeast – SARS-CoV PLP inhibition in yeast | S. cerevisiae expressing SARS-CoV PLpro, growth rescue; control for the full effect not named in the record | Potency, µM (top dose mostly 32.9 µM), without a hit: top-dose activity, positive = growth rescue | 330,000 compounds, 0.19% hits | AID 485353; active means well fitted rising curve with a large enough effect; inconclusive means small, poorly fitted or top-dose-only effect; inactive means no such curve, though single readings can be large or run the other way; further: 0% is about no effect; nearly all actives have a fitted effect of over 55% in size; growth read by luminescence after 48 h
RE007 growth inh – less growth of the S. pombe RE007 Vpr strain; S. pombe RE007 Vpr strain, BacTiter-Glo ATP luminescence, 24 h; control for the full effect not named in the record; Potency, µM (titrated, usually from 92.2 µM), inactives show at the top dose activity change, negative = less growth; 360,000 compounds, 0.21% hits; AID 651644; active = well fitted falling curve with a large enough effect; inconclusive = small, poorly fitted or top-dose-only effect; inactive = no such curve, though single readings can be large or run the other way;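 further: on the % scale 0 is the no-effect control and ±100 the full control effect; nearly all actives have a fitted effect of over 50% in size; the assay follows cell death caused by Vpr and the record does not say whether a fall means rescue or toxicity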
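Fission yeast strain RE007, carrying one chromosomally integrated HIV-1 vpr copy, was seeded at OD 0.01 in PMG+AL medium with 23 nL pinned compound. After 24 h at 30 °C and 99% humidity, viability was read by BacTiter-Glo luminescence.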
StopGo reporter – FMDV 2A StopGo reporter, luciferase signal; human cells with a luciferase reporter of 2A StopGo recoding; control for the full effect not named in the record; Potency, µM (titrated, usually from 57.9 µM), inactives show at the highest dose signal change, negative = less light; 410,000 compounds, 1.2% hits; active = well fitted falling curve with a large enough effect; inconclusive = small, poorly fitted or top-dose-only effect; inactive = no such curve, though single readings can be large or run the other way; tested in HEK293T cells; further: on the % scale 0 is the no-effect control and ±100 the full control effect; nearly all actives have a fitted effect of over 45% in size; luciferase light after 4 h
Marburg entry inh – Marburg virus entry inhibition | Marburg virus pseudotyped entry inhibition, cell reporter; control for the full effect not named in the record; about a third of the inactives were read at about 46 µM | Potency, µM (titrated, usually from 37.8 µM), without a hit: top-dose activity change, negative = inhibition, usual class: inhibitors | 300,000 compounds, 1.8% hits | AID 540276; active = well fitted inhibition curve with a large enough effect; inconclusive = small, poorly fitted or top-dose-only effect, or effect the other way; inactive = flat fitted curve, though single readings scatter; tested in HEK293 cells; about a fifth of its hits are not listed in these tables; further: on the % scale 0 is the no-effect control and ±100 the full control effect; luciferase read-out
Cruzain inh Det – cruzain (T. cruzi) inhibition with detergent. purified cruzain, Z-FR-AMC fluorescence, 0.01% Triton. Potency, µM, inactives show max response, negative = inhibition, hits mostly inhibitors. 200,000 compounds, 0.43% hits. AID 1478;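 further: plate controls were neutral wells for no effect and buffer without enzyme for full effect; nearly all actives have a fitted effect of over 40% in size; top concentration of the series not given in the record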
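Cysteine protease activity tested under reducing, mildly acidic conditions (100 mM sodium acetate pH 5.5, 5 mM DTT) plus 0.01% Triton X-100. Cruzain 1.5 nM; substrate Z-FR-AMC 2 uM; 15 min compound preincubation at room temperature.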
NS1 function inh – inhibitors of influenza NS1 protein function | S. cerevisiae slowed by influenza A NS1, growth recovery by OD600 | 270,000 compounds, 0.4% hits | AID 2326 | Potency, µM (series often up to 46.1 µM), for inactives: at the top dose activity, positive = more growth; active means well fitted rising curve with a large enough effect; inconclusive means small, poorly fitted or top-dose-only effect; inactive means no such curve, though single readings can be large or run the other way; further: nearly all actives have a fitted effect of over 50% in size
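S. cerevisiae expressing influenza A NS1, grown in glucose, washed, then diluted 1:100 into pH 6.0 -URA galactose medium with 23 nl compound. Growth recovery read as OD600; NS1-free strain serves as control.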
* marks the source's active call; other numbers are inactive results; ? = inconclusive; . = not tested or not shown; & = joins results of further samples; [ ] = another dose, or the depositor's remark. Unless noted, the call rests on the fitted dose curve; in most records, active means well fitted curve in the direction sought with a large enough effect; inconclusive means small, poorly fitted or top-dose-only effect, or another doubt; inactive means no such curve, though single readings can be large; an effect the other way counts as inactive or inconclusive. Potency means the concentration at half of the fitted maximal effect.

Molecule,Cruzain inh noDet,LASV entry inh,SARS PLP yeast,RE007 growth inh,StopGo reporter,Marburg entry inh,Cruzain inh Det,NS1 function inh
Cc1ccc(N2CC(C(=O)Nc3ccc(Cl)cc3Cl)CC2=O)cc1 (configuration not stated),11%,24%[46.1 µM],.,.,21%,.,-1.0%,.
O=C(Nc1cccc(-n2cnnn2)c1)c1ccc(Cl)cc1Cl,.,.,-3%,5%,-17%,.,.,11%
Cn1cc(C(=O)c2cccc(Cl)c2Cl)cc1C(=O)O,-1%,-4%,2%,4%,-21%,-15%,-0.5%,3%
O=C(Nc1nccs1)c1cc2sccc2n1Cc1ccc(F)cc1,?,-1%,0%,-6%,20%,?,1.1%,6%
CC1C(=O)N2CCCc3cc(S(=O)(=O)NCc4ccc(Cl)cc4)cc1c32 (configuration not stated),.,.,8%,-8%,15%,.,.,18%
Cc1cccc(NC(=O)N2CCC(C(=O)c3ccc(F)cc3)CC2)c1,.,25%,-2%,-18%,24%,-29%[46.1 µM],.,-37%
CC(C)CC(=O)NC(=S)NCCc1ccccc1,6%,-3%,2%,?,6%,-9%[46.1 µM],-3.3%,-19%
Clc1ccc(-c2ccc(CNCCSc3nnnn3-c3ccccc3)o2)cc1,?,0%[46.1 µM],.,.,-24%,-16%[46.1 µM],-4.3%,.
CCOC(=O)c1ccc(NC(=O)C(Cc2ccccc2)NS(=O)(=O)c2ccc(Br)s2)cc1 (configuration not stated),?,-3%[46.1 µM],.,.,-12%,0%[46.1 µM],-0.2%,.
CN(C)/N=C/C=C1\CCC/C(=C\c2ccc(F)c(F)c2)C1=O,.,?,-2%,4%,-22%,?,.,-40%
Cn1c(=NC(=O)c2ccccc2[N+](=O)[O-])sc2cc(S(C)(=O)=O)ccc21,-11%,14%,-7%,-1%,32%[activator],?,-1.9%,19%
CCN(CC)CC(O)CNc1ccnc2c(Cl)ccc(Cl)c12 (configuration not stated),.,20%[46.1 µM],.,-22%,-4%,?,.,.
Cc1ccc(C(=O)NNC(=O)CCCCC(=O)NNC(=O)c2ccc(C)cc2)cc1,.,7%[46.1 µM],11%,-10%,-3%,-1%[46.1 µM],.,8%
CC(=O)OC12COC1CC(O)C1(C)C(=O)C(O)C3=C(C)C(O)CC(O)(C(OC(=O)c4ccccc4)C21)C3(C)C (configuration not stated),.,0%,.,12%,-8%,-25%,.,.
Cc1ccc(Nc2cc(=O)oc3ccccc23)c(C)c1,0%,-13%,-12%,-10%[3.69 µM],-1%,-27%,3.2%,-71%
COc1cccc(-n2c(/C=C\c3ccc(Cl)cc3)nc3ccccc3c2=O)c1,-4%,-16%[46.1 µM],.,.,?,.,-2.2%,.

The results go on:
Results follow in this order: Cruzain inh noDet | LASV entry inh | SARS PLP yeast | RE007 growth inh | StopGo reporter | Marburg entry inh | Cruzain inh Det | NS1 function inh
- COc1ccc(CNC(=O)COC(=O)c2ccc(OCc3c(C)noc3C)cc2)cc1OC
    1% | ? | 24% | -2% | -55% | -8% | -3.0% | 7%
- CCN(CC)S(=O)(=O)c1ccc(N2CCOCC2)c(NC(=S)NC(=O)c2ccco2)c1
    . | ? | 0% | 2% | -30% | ? | . | 7%
- Cc1ccc(S(=O)(=O)Nc2cc3c(cc2Cl)n(C)c(=O)c(=O)n3C)cc1
    -2% | 6%[46.1 µM] | . | . | 18% | 1%[46.1 µM] | -1.2% | .
- O=C(Nc1ccccc1N1CCCC1)c1cccnc1Cl
    2% | -13% | 28% | -11% | -5% | -5% | 2.2% | 5%
- CCCNC(=S)N1CCN(C)CC1
    0% | 1% | 0% | -2% | -11% | ? | 0.8% | 13%
- COc1ccccc1-c1cc(C(F)(F)F)nc(N2CCN(c3ccccc3)CC2)n1
    -23% | -2% | -2% | -25% | -16% | 1% | 2.2% | -3%
- Cc1ccc(S(=O)(=O)NC(C(=O)N2CCOCCOCCOCC2)c2ccccc2)cc1 (configuration not stated)
    . | -12% | 0% | -7% | 15% | ? | . | .
- COCCNC(=S)Nc1ccccc1[N+](=O)[O-]
    . | ? | 2% | 17% | -6% | 2%[46.1 µM] | . | 6%
- CCC(Sc1nc2cc(OC)c(OC)cc2c(=O)n1Cc1ccc(Cl)cc1)C(=O)NCCOC (configuration not stated)
    -5% | -18%[46.1 µM] | . | . | -11% | . | 3.8% | .
- COc1ccc(Cl)cc1N(CC(=O)N(C)C)S(=O)(=O)c1ccc(C)c([N+](=O)[O-])c1
    . | . | -3% | 3% | 94%[activator] | . | . | -2%

Next part, starting with the last five of the part before.
Results follow in this order: Cruzain inh noDet | LASV entry inh | SARS PLP yeast | RE007 growth inh | StopGo reporter | Marburg entry inh | Cruzain inh Det | NS1 function inh
- COc1ccccc1-c1cc(C(F)(F)F)nc(N2CCN(c3ccccc3)CC2)n1
    -23% | -2% | -2% | -25% | -16% | 1% | 2.2% | -3%
- Cc1ccc(S(=O)(=O)NC(C(=O)N2CCOCCOCCOCC2)c2ccccc2)cc1 (configuration not stated)
    . | -12% | 0% | -7% | 15% | ? | . | .
- COCCNC(=S)Nc1ccccc1[N+](=O)[O-]
    . | ? | 2% | 17% | -6% | 2%[46.1 µM] | . | 6%
- CCC(Sc1nc2cc(OC)c(OC)cc2c(=O)n1Cc1ccc(Cl)cc1)C(=O)NCCOC (configuration not stated)
    -5% | -18%[46.1 µM] | . | . | -11% | . | 3.8% | .
- COc1ccc(Cl)cc1N(CC(=O)N(C)C)S(=O)(=O)c1ccc(C)c([N+](=O)[O-])c1
    . | . | -3% | 3% | 94%[activator] | . | . | -2%
- Cc1ccc2nc3c(cc2c1)c(NC(=O)C(C)(C)C)nn3CC(C)C
    . | -5%[46.1 µM] | -1% | 4% | -12% | 30%[46.1 µM] | . | -5%
- CCNS(=O)(=O)c1ccc(CCC(=O)Nc2ccc(C(=O)OC)cc2)cc1
    . | 0% | -1% | 1% | -4% | -3% | . | .
- CCOC(=O)c1c(NC(=O)OC)sc2c1CCC2
    -2% | 10% | 2% | -29% | 2% | -16%[46.1 µM] | -4.7% | -35%
- Cc1ccc(N2CCCCn3c2nc2c3c(=O)[nH]c(=O)n2C)cc1
    8% | ? | 6% | 1% | -19% | -11% | 1.0% | 10%
- COC(=O)c1ccc2c(=O)n(CCCCCC(=O)NCc3ccc(Cl)cc3)c(=O)[nH]c2c1
    -18% | 2%[46.1 µM] | . | . | 12% | . | 1.6% | .
- Cc1cc2nc(-c3ccc(SCC(=O)N4CCN(C(=O)c5ccco5)CC4)nc3)[nH]c2cc1C
    29% | 70%[14.3 µM] | -7% | -3% | 5% | ? | -11% | ?
- O=C(C1CCCN1S(=O)(=O)c1cccc2cccnc12)N1CCn2c1nc1ccccc12 (configuration not stated)
    -4% | 11% | -13% | -16% | -25% | -10% | -1.2% | -48%
- Cc1cnc(=O)[nH]c1SCc1ccc([N+](=O)[O-])cc1
    . | . | -1% | 1% | -6% | . | . | -9%
- Cc1ccc(/C=N/NC(=O)c2cc(-c3ccccc3)nc3ccccc23)o1
    . | -21%[46.1 µM] | . | -8% | -8% | -26%[46.1 µM] | . | 2%
- COCCN(C(=O)COC(=O)/C=C/c1cccc(OC)c1)c1c(N)n(CC(C)C)c(=O)[nH]c1=O
    . | -4% | -1% | 3% | -20% | 2% | . | .
- CC(=O)c1cccc(NC(=O)C2CCN(S(=O)(=O)c3ccc(C)cc3)CC2)c1
    8% | 3% | -17% | 1% | ? | 5%&5% | -2.1% | -19%
- CSc1ncccc1C(=O)N1CCN(S(=O)(=O)c2cc(C)ccc2C)CC1
    . | -15%[46.1 µM] | -3% | 2% | -8% | 4%[46.1 µM] | . | 0%
- CC(C)(C)c1ccc(CS(=O)(=O)CC(O)CN2CCCC2=O)cc1 (configuration not stated)
    . | 4%[46.1 µM] | 0% | 4% | -17% | 15%[46.1 µM] | . | 0%
- O=C(OCC(=O)N1CCN(c2ccccc2)CC1)c1ccc2ccccc2n1
    1% | 6% | 6% | -20% | 0% | 2% | 0.5% | -15%
- CSc1ccc(/C=N/S(=O)(=O)c2ccccc2)cc1
    . | . | 0% | 5% | -4% | . | . | 3%
- COc1cccc(N2CC(C(=O)Nc3nnc(SCC(=O)Nc4cc(C)on4)s3)CC2=O)c1 (configuration not stated)
    . | ? | 1% | 10% | 4% | ? | . | .
- Brc1cccc(CN2CCN(c3ncccn3)CC2)c1
    . | 10%[46.1 µM] | 0% | -4% | -14% | -13%[46.1 µM] | . | -3%
- CN(CC(=O)Nc1ccc(Cl)c(C(F)(F)F)c1)C(=O)C1CCC1
    . | 4% | -3% | -9% | -13% | -6% | . | .
- Cc1cc(C(=O)CSc2nncn2C)c(C)n1-c1ccccc1
    . | ? | -2% | -5% | -3% | ? | . | .
- COc1ccc(NS(=O)(=O)c2cccc(NC(=O)c3ccccn3)c2)cc1
    . | . | -1% | 36% | 21% | . | . | -1%
- C/C(=N\NC(=O)c1ccccc1F)c1cccc(NC(=O)c2ccccc2)c1
    . | 0% | 2% | 1% | 5% | ? | . | 7%
- Cc1ccc2c(c1)c1ncnc(N3CCC4(CC3)OCCO4)c1n2C
    ? | . | 5% | . | . | 7% | -14% | -48%

Screening results as filed in PubChem BioAssay.
